# Screens (PubChem)
# VDR inhibitor: inhibitors of human vitamin D receptor; VDR-SRC2-3 peptide fluorescence polarization, 2 h; P11473; AID 504847; actives 0.93% (n = 400,000); Potency, µM, without a hit: max response, negative = inhibition, usual class: inhibitors; active means well fitted inhibition curve with a large enough effect; inconclusive means small, poorly fitted or top-dose-only effect, or another doubt; inactive means no such curve, though single readings can be large or run the other way; further: series mostly up to about 120 µM
# Target sequence (P11473 whole entry, looked up): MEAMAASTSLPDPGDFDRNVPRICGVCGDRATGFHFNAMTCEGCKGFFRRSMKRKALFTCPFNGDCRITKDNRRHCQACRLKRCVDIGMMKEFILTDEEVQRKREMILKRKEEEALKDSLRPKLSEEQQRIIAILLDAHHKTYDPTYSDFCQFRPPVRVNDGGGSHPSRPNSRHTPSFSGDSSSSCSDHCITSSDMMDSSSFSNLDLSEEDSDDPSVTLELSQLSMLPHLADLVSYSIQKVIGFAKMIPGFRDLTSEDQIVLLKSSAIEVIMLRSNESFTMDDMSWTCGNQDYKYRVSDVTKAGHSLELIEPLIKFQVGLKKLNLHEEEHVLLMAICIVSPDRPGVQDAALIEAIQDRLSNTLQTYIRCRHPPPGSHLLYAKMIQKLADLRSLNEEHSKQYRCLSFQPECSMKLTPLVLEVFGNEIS
#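 After 23 nl compound addition and a short centrifugation, plates sat for 2 hours at ambient temperature; polarization of fluorescence then indicated loss of VDR binding to peptide SRC2-3.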
# * marks the source's active call; other numbers are inactive results; ? = inconclusive; & = joins results of further samples; [ ] = dose if it differs, or a comment. On the % scale 0 is the no-effect control and ±100 the full control effect; potency means the concentration at half of the fitted maximal effect. Some of the compounds tested, so the mix of outcomes need not match the whole.
SMILES,VDR inhibitor
Cc1ccccc1C(OCC(O)CN1CCC(C(N)=O)CC1)c1ccccc1 (configuration not stated),-7%
CC(C)[C@H](NS(=O)(=O)/C=C/c1ccccc1)C(=O)OCC(=O)NC(N)=O,-11%
Cc1ccc(S(=O)(=O)N(C)C)cc1NC(=O)CSc1ncn[nH]1,8%
CC(CO)Nc1nc(SCc2ccccc2)nc2sc3c(c12)CCC3 (configuration not stated),-20%
CC(C)(C)OC(=O)N1CCC(c2c(C(=O)N3CCCCC3)cnn2-c2ccc(Cl)cc2)CC1,-1%
Cc1cccc(Cl)c1NC(=O)N1CCCN(c2nc3ccc(Cl)cc3s2)CC1,-12%
CCN(CC)CCNC(=O)Cc1nn(CC)c(=O)c2ccccc12,-3%
CC(=O)Nc1ccc(OCC=C(Cl)Cl)cc1,21%
Cc1ccc(-n2cccc2/C=C2/C(=N)N3C(=NC2=O)SN=C3S(C)(=O)=O)cc1,-29%
Cc1cccc(C)c1N(CC(=O)Nc1cc(Cl)ccc1Oc1ccccc1)S(C)(=O)=O,11%
N#CCCN(C(=O)COC(=O)COc1ccc(Cl)cc1)c1ccccc1,?
CCC(C)NC(=O)CN1c2cccc3cccc(c23)S1(=O)=O (configuration not stated),6%
CC(=O)Nc1ccccc1-c1nc2ccccc2nc1OCC(=O)c1ccc(Br)cc1,0%
CCOC(=O)c1sc(=S)n(C)c1NC(=O)c1ccc(F)cc1,?
CCCCOc1ccc(OCCNS(=O)(=O)N(C)C)cc1,-13%
CC(=O)c1ccc(OCCCC(=O)OCC(=O)N2CCN(S(=O)(=O)c3ccc(C)cc3C)CC2)cc1,2%
CCOC(=O)C1=C(c2ccccc2)c2ccccc2OC1C(=O)OCC (configuration not stated),-11%&6%
CC1CC(C)(C)NC(=S)S1 (configuration not stated),5%
COc1ccc(S(=O)(=O)n2nc(OC(=O)c3cccs3)cc2NC(=O)c2cccs2)cc1,6%
O=C(NCC(=O)N(c1ccccc1)C(C(=O)NC1CCCC1)c1ccncc1)c1ccco1 (configuration not stated),15%
CC(=O)N1CCN(S(=O)(=O)c2cccc(C(=O)Nc3ccc(F)c(F)c3)c2)CC1,3%
COC(=S)Nc1cccc(C(F)(F)F)c1,6%
Cc1ccc(S(=O)(=O)ON=C2CCN(S(=O)(=O)c3ccccc3)CC2)cc1,-17%
COc1ccc(N2C(=O)CSC23C(=O)N2CCCc4cccc3c42)cc1 (configuration not stated),1%
CC(=O)c1sc2nc(-c3ccccc3)cc(C)c2c1N,-16%
O=C(N/N=C/c1cccn1-c1cccc(C(=O)O)c1)Nc1ccccc1,-2%
CN1CCN(Cc2c(O)ccc3c2oc(=O)c2ccccc23)CC1,5%
c1ccc2cc(N3CCCCC3)ccc2c1,-8%
O=C(O)[C@H]1CC=C[C@H]2CCN(Cc3ccc(Cl)c(Cl)c3)C(=O)[C@@H]12,?
Cc1ccccc1C(=O)c1cccn1CC(=O)NCc1ccco1,13%
CCOc1cc(N2CCOCC2)c(OCC)cc1NC(=O)CN1C(=O)C2C3C=CC(C3)C2C1=O (configuration not stated),-9%
CSc1cccc(NC(=O)CCNS(=O)(=O)c2ccc3[nH]c(=O)oc3c2)c1,-16%
O=C(CCCn1c(=S)[nH]c2ccsc2c1=O)NC1CCCCC1,2%
CN1CCN(C(=O)c2ccc(CN(c3ccccc3)S(=O)(=O)c3ccccc3)cc2)CC1,15%
CC(C)C[C@H](N)C(=O)N1CCC(C(=O)N[C@H](C(=O)NC(C)c2ccccc2)C(C)C)CC1 (some centres not stated),-10%
Fc1ccc2cnc(CCO[C@H]3CCCCO3)cc2c1,-1%

# Brought forward from above: three compounds, then new ones.
SMILES,VDR inhibitor
CN1CCN(C(=O)c2ccc(CN(c3ccccc3)S(=O)(=O)c3ccccc3)cc2)CC1,15%
CC(C)C[C@H](N)C(=O)N1CCC(C(=O)N[C@H](C(=O)NC(C)c2ccccc2)C(C)C)CC1 (some centres not stated),-10%
Fc1ccc2cnc(CCO[C@H]3CCCCO3)cc2c1,-1%
Cc1ccc(NC(=O)Cc2nnc(SCC(=O)Nc3nncs3)n2C)cc1,1%
COc1ccc(-c2nc(N3CCN(S(=O)(=O)c4ccc(C)cc4)CC3)c3ccccc3n2)cc1,-10%
S=C(N/N=C/c1ccc2ncccc2c1)Nc1ccccc1,0%
Cc1cc(C)c(S(=O)(=O)N(C)CC(=O)NCc2ccncc2)c(C)c1,9%
S=C1NCN(C2CCCCC2)CN1CCc1ccccc1,0%
CCOc1ccccc1N1CC(C(=O)Nc2cc(Cl)ccc2-n2cncn2)CC1=O (configuration not stated),7%
Cc1ccc2c(c1)CC(C)N2S(=O)(=O)c1nnc(NC(=O)CC(C)C)s1 (configuration not stated),-6%&0%
O=C(c1ccco1)N1CCCC(c2nc3c(nnn3Cc3cccc(Cl)c3)c(=O)[nH]2)C1 (configuration not stated),-10%
CC1CC1C(=O)Nc1nc(-c2ccccn2)cs1 (configuration not stated),79µM*
O=C1C2CC(O)CN2C(=O)N1c1ccccc1 (configuration not stated),-1%
O=C(O)/C=C\C(=O)NCc1ccccc1,2%
COc1ccc2nc(COC(=O)c3cccc([N+](=O)[O-])c3)c(C(C)=O)[n+]([O-])c2c1,2%
COc1cc(C2C(C#N)=C(N)Oc3cc(O)ccc32)cc2c1OCO2 (configuration not stated),-10%
O=C(/C=C/c1ccc(OCCCF)cc1)Nc1ccnc(-c2cccnc2)n1,-18%
Cc1cccc(C)c1OCc1cc(C(=O)N2CCC(C3CCCCC3)C2)no1 (configuration not stated),-16%
Nc1nc(Cl)c(C=O)c(N2CCCCC2)n1,-6%
Cc1ccc(NC(=O)CNc2cccc(Br)c2)cc1S(=O)(=O)N1CCOCC1,50%[activator]
Cc1ccccc1C(=O)Nc1nnc(S(=O)(=O)N(C)Cc2ccco2)s1,?
Cc1ccc(NC(=S)N2CCCC(c3ccccc3)=N2)cc1,7%
CC(C)CCn1nnnc1CN1CCN(c2ccccc2)CC1,-9%
CC(NC(=O)CS(=O)(=O)c1ccccc1)c1ccccc1 (configuration not stated),2%
CCCS(=O)(=O)N1CCCC(C(=O)NCc2cccnc2)C1 (configuration not stated),0%
Cc1ccc(NC(=O)CSc2nc3ccccc3c(=O)n2CCCC(=O)NCCCN2CCOCC2)cc1C,-6%
CN1CCNC(=O)C1CC(=O)NCCC1=CCCCC1 (configuration not stated),-16%

# Ordered by value in VDR inhibitor (largest number first): four from the list above.
SMILES	VDR inhibitor
O=C(O)/C=C\C(=O)NCc1ccccc1	2%
CCN(CC)CCNC(=O)Cc1nn(CC)c(=O)c2ccccc12	-3%
CN1CCNC(=O)C1CC(=O)NCCC1=CCCCC1 (configuration not stated)	-16%
Cc1ccc(S(=O)(=O)ON=C2CCN(S(=O)(=O)c3ccccc3)CC2)cc1	-17%

# Later entries:
SMILES,VDR inhibitor
COc1ccc(NC(=O)CC23CC4CC(C2)CC(n2nnc(C)n2)(C4)C3)cc1,-19%
O=C1CC(SCCc2nc3ccccc3[nH]2)C(=O)N1c1ccc(F)cc1 (configuration not stated),-4%
CCc1cccc(NC(=O)C2CCCN(c3cnccn3)C2)c1 (configuration not stated),-3%
Cc1ccccc1CNC(=O)c1c(C)oc2c1C1=NCCN1C=N2,12%
COC(=O)c1cc(NC(=O)COC(=O)CCc2nc3ccccc3c(=O)[nH]2)cc(C(=O)OC)c1,1%
CCOCC(=O)Nc1nnc(C)s1,4%
COc1ccccc1NC(=O)C(=O)N/N=C(\C)CC(=O)Nc1ccccc1C(F)(F)F,-10%
Cc1ccc(NC(=O)CN2CCN(Cc3ccccc3)CC2)c(Br)c1,0%
O=C(CN1C(=O)NC2(CCCC2)C1=O)N1CCN(S(=O)(=O)c2ccc(Cl)c(C(F)(F)F)c2)CC1,-4%
CSC(=Nc1ccc(Cl)cc1)N[n+]1ccccc1,0%
Clc1ccc(Nc2c(-c3ccccc3Cl)nc3ccc(Cl)cn23)cc1,-11%
NS(=O)(=O)c1ccc(NC(=S)NCc2ccc(Cl)cc2)cc1,?
O=C(CCN1C(=O)c2ccccc2Sc2ncccc21)Nc1ccc(F)cc1,-7%
CCOc1ccccc1N1CC(C(=O)N(C)Cc2cccnc2)CC1=O (configuration not stated),7%
CC1CCc2cc(F)ccc2N1C(=O)C12CCC(C)(C(=O)O1)C2(C)C (configuration not stated),-8%
CCOC(=O)c1cnc2ccc(OCC)cc2c1NCCc1ccc(OC)c(OC)c1,-2%
Cc1ccccc1Nc1nc(N)nc(COC(=O)c2c(C)noc2C)n1,-15%
Cc1ccc(-n2ncc(Cl)c2C(=O)NC2CC2)cc1,14%
COc1ccc(OC)c(-c2cc(C(=O)Nc3c(C)nn(Cc4ccccc4Cl)c3C)no2)c1,9%
COc1cc(CCN2C(=O)c3cccc4cccc(c34)C2=O)c(S(=O)(=O)NCCO)cc1OC,-14%
Cc1ccccc1NC(=O)CSc1nc(-c2ccc(F)cc2)nc2c1Cc1ccccc1O2,-22%
Cn1c(=O)c2c(SC3CCCC3)nc(C3CC3)nc2n(C)c1=O,-11%
CCN1C(=O)/C(=C/c2cccs2)S/C1=N\S(=O)(=O)c1ccc(C)cc1,-6%
O=[N+]([O-])c1cccc(C=NNc2ccccc2)c1,2%
COc1cc(CNc2ccc3c(c2)ncn3C(C)C)cc(OC)c1OC,-13%
O=C(CSc1nnc2ccc(-c3cccnc3)nn12)Nc1cccc(F)c1,-26%
O=C(N/N=C/c1ccccc1C(F)(F)F)c1ccc(O)cc1,-5%
Cc1ccc(CC(=O)N2CCC(c3nc4c(nnn4Cc4ccccc4)c(=O)[nH]3)CC2)cc1,-6%
c1ccc2c(c1)nc(N1CCCCC1)c1ccccc12,6%
CCCCCCCC(=O)Nc1cc(C(=O)NCCC)ccc1N1CCC2(CC1)CC(c1ccccc1)=NO2,14%
CC(C)c1cc(C(N)=O)c(NC(=O)C2CCC2)s1,10%
CCCCN(C)Cc1c(C)[nH]c2ccccc2c1=O,-1%
CC1=Nc2cc(C(=O)O)ccc2Sc2ccc(Br)cc21,-2%
CCOCCN1CCN(C(=O)CN2CCCC2=O)CC1,-9%
COc1ccc(Nc2ncc(C(=O)Nc3ccc(F)cc3F)c3ccccc23)cc1,-10%
CCOc1ccc(C2/C(=C(\O)c3ccc(OC)c(OC)c3)C(=O)C(=O)N2c2cc(C)on2)cc1OC (configuration not stated),10%

# Next section; the last 3 above are carried over.
SMILES,VDR inhibitor
CCOCCN1CCN(C(=O)CN2CCCC2=O)CC1,-9%
COc1ccc(Nc2ncc(C(=O)Nc3ccc(F)cc3F)c3ccccc23)cc1,-10%
CCOc1ccc(C2/C(=C(\O)c3ccc(OC)c(OC)c3)C(=O)C(=O)N2c2cc(C)on2)cc1OC (configuration not stated),10%
O=C(Nc1ccc(F)cc1Cl)C1=COCCO1,-1%
O=C(NCc1ccc2c(c1)OCO2)c1ccc(S(=O)(=O)C(F)F)cc1,5%
COc1ncc2nc(-c3cn(C)c4ccccc34)c(=O)n(C[C@H]3CCCO3)c2n1,1%
O=C(c1ccco1)N1CCN(c2ncccn2)CC1,5%
CCc1cccc(C)c1NC(=O)c1cc(C)nc2c1c(C)nn2-c1cccc(Cl)c1C,2%
CN1CCN(CCC(=O)N/N=C/c2cc([N+](=O)[O-])ccc2O)CC1,-4%
O=C(Nc1cccc(F)c1)N1CCCC2(CCN(C(=O)c3cnccn3)CC2)C1,-2%
COCCNC(=O)c1ccc2c(c1)nc(C)n2-c1cccc(F)c1,-21%
CCC(C)(C)NC(=O)C(c1ccccc1)N(Cc1cccnc1)C(=O)c1csnn1 (configuration not stated),-1%
Cn1cc(CC(=O)NCCCN2CCCC2=O)c2ccccc21,-21%
CCCn1cc(S(=O)(=O)CC(=O)Nc2ccc(OC)cc2OC)c2ccccc21,-7%
O=c1c2ccccc2n(Cc2c(F)cccc2Cl)c(=O)n1CCc1ccccc1,-13%
Cc1ccc(NC(=O)c2sc3ncn(CC(=O)N4CCN(c5ccccn5)CC4)c(=O)c3c2C)cc1Cl,-15%
CCC(C(=O)OCC(=O)Nc1ccc(SC(F)F)cc1)c1ccccc1 (configuration not stated),0%
CCOC(=O)CC1=C(C(=O)OCC)C(c2ccc(OC)c(OC)c2)C(C#N)=C(N)O1 (configuration not stated),5%
CCOC(=O)c1c(C)oc2ccc(OCC(=O)C(C)(C)C)cc12,8%
Cc1cc(C(=O)OCC(=O)NCc2ccccc2)c(C)o1,-3%
CC(Cc1ccccn1)NC(=O)c1ccc(OC2CCN(CCc3ccccc3)CC2)cc1 (configuration not stated),-6%
COc1cccc(N2CCN(Cc3ccsc3)CC2)c1,8%
Cc1c(Cl)cccc1NC(=O)c1ccc(NC(=O)N2CCSc3ncccc32)cc1,16%
Cc1ccc(S(=O)(=O)Nc2ncnc3sc(C)c(C)c23)cc1,2%
COc1ccc(-c2cc(CNC(=O)CN(C)Cc3ccccc3)on2)cc1,-10%
Nc1cc(C(=O)c2cccs2)ccc1Cl,11%
Cc1nc(-c2ccc(S(=O)(=O)Nc3ccc(Cl)c(C(F)(F)F)c3)cc2)co1,10%

# Fetched one by one from above:
SMILES,VDR inhibitor
O=C(NCC(=O)N(c1ccccc1)C(C(=O)NC1CCCC1)c1ccncc1)c1ccco1 (configuration not stated),15%
COc1cc(CNc2ccc3c(c2)ncn3C(C)C)cc(OC)c1OC,-13%

# The list continues.
SMILES,VDR inhibitor
O=C(Nc1ccc(N2CCOCC2)cc1N1CCOCC1)c1ccc(Br)cc1,19%
CC(CCc1ccccc1)NC(=O)Cc1ccccc1 (configuration not stated),9%
CCOc1ccc(CNC(=S)N/N=C/c2ccncc2)cc1,-8%
CCCCn1c(N)c(N(CCOC)C(=O)c2cnc(C)cn2)c(=O)[nH]c1=O,-1%
CN(Cc1ccccc1)C(=O)COc1ccccc1,11%
COc1cc(OC)cc(C(=O)N[C@H](C(=O)OCC(=O)Nc2ccc(C(N)=O)cc2)C(C)C)c1,-13%
C[C@@H](NCCCc1cccc(C(F)(F)F)c1)c1cccc2ccccc12,2%
NC(N)=NC(N)=Nc1ccccc1,0%&-12%&2%
Cc1nc(N/N=C\c2ccc3c(c2)OCO3)sc1C,1%
CN(C)c1ccc(CNC(=O)c2ccccc2NC(=O)c2nsc3ccccc23)cc1,1%
